# VDR inh: inhibitors of human vitamin D receptor; Potency, µM, without a hit: max response, negative = inhibition, most hits filed as inhibitors; VDR-SRC2-3 peptide fluorescence polarization, 2 h; P11473; AID 504847; 400,000 compounds, 0.93% hits; active = well fitted inhibition curve with a large enough effect; inconclusive = small, poorly fitted or top-dose-only effect, or another doubt; inactive = no such curve, though single readings can be large or run the other way; note: series mostly up to about 120 µM
# Target sequence (P11473 whole entry, looked up): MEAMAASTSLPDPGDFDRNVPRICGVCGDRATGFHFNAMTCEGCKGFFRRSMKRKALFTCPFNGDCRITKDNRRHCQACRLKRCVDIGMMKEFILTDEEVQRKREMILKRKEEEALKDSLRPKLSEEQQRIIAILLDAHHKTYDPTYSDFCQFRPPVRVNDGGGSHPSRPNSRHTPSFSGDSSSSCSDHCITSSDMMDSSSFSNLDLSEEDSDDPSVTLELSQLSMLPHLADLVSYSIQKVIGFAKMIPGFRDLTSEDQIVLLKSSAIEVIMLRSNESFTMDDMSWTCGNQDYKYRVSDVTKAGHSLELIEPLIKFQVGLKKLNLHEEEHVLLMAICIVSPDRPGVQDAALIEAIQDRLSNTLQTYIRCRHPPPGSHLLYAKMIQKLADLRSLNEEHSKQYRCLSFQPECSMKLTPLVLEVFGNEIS
#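 Signal is fluorescence polarization, reporting how far test compounds block the interaction of VDR with the SRC2-3 coregulator peptide after a 2 h room-temperature incubation.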
# Numbers without * were called inactive; ? = inconclusive; & = joins results of further samples; ! = a repeat was not active. % is set by controls: 0 for no effect and ±100 for the full control effect; potency is the fitted concentration of half-maximal effect. The list is partial; count on the stated rates, not on these rows.
SMILES,VDR inh
CCC(C(=O)N1CCC2(CC1)OCCO2)c1ccccc1 (configuration not stated),10.0%
O=C(O)c1ccc(-c2ccc3cc(C45CC6CC(CC(C6)C4)C5)c(O)cc3c2)cc1,56.2µM*
O=c1[nH]c2ccccc2n1C1CCN(Cc2ccc(-c3[nH]c4cc5ncnc5cc4nc3-c3ccccc3)cc2)CC1,-22.0%
CCC(C)C(=O)N[C@@H](c1ccccc1)[C@@H](O)C(=O)O[C@H]1C[C@@]2(O)[C@@H](OC(=O)c3ccccc3)C3[C@](C)(C(=O)[C@H](OC(C)=O)C(=C1C)C2(C)C)[C@@H](O)C[C@H]1OC[C@@]31OC(C)=O (some centres not stated),-13.8%
COc1cccc(CNCCc2c[nH]c3ccccc23)c1OC,8.1%
O=C(CSC1c2ccccc2-c2ccccc21)N/N=C/c1ccccc1,-3.5%
COc1cccc(N2C(=O)NC(=O)/C(=C\c3cn(C)c4ccccc34)C2=O)c1,-9.0%
CC(C(=O)c1c[nH]c2ccccc12)N1CCSCC1 (configuration not stated),-11.0%
CCC(=O)N1N=C2C3CCN(CC3)C2C1c1ccc(C)cc1 (configuration not stated),-17.5%
CCOc1ccc(-n2c(-c3ccoc3)nc3ccccc3c2=O)cc1,-5.1%
O=C1NC(=O)c2c1c1c3ccccc3n3c1c1c2c2ccccc2n1C1CCC3O1,2.6%
O=C1N(CN2CCOCC2)c2ccccc2C1(O)c1c[nH]c2ccccc12 (configuration not stated),-11.7%
Cc1ccc2c(c1)C1CN(C)CCC1N2C(=O)Cn1nnc(-c2ccccc2F)n1 (configuration not stated),-3.2%
CCOP(=O)(Cc1cc(C(C)=O)c(C)o1)OCC,?
Cn1nc(-c2ccc(OCC(=O)N3CCN(Cc4ccccc4)CC3)cc2)c2ccccc2c1=O,-0.7%&-7.0%
COc1cccc2c1C13CC[N+]4(CC5CC5)CO[C@]1(CCC(=O)C3)C4C2,10.3%
CCN1CCN(c2ccc([N+](=O)[O-])cc2C=C2C(=O)NC(=O)NC2=O)CC1,?
COc1ccc2[nH]c(C)c(CCN3CCC(=O)C(C)C3C)c2c1 (configuration not stated),-18.7%
C(=C\c1ccccc1)/CN1CCN(CCOC(c2ccccc2)c2ccccc2)CC1,-10.3%
CC1(C)C(O)CC(=O)[C@]2(C)C1CC(=O)[C@]1(C)C2CC[C@@]2(C)C(c3ccoc3)OC(=O)C3O[C@@]321 (some centres not stated),-0.6%
O=C(O)c1cc(O)c(O)c(O)c1,50.1µM*!
O=C(c1n[nH]c(=O)c2ccccc12)N1CCC2(CC1)OCCO2,-5.4%
CCOc1cc2c(cc1OCC)-n1cccc1C(c1cc(C)c(OC)cc1C)NC2 (configuration not stated),-19.7%
Cc1nc2ncnn2c(C)c1CCC(=O)N1CCC2(CC1)OCCO2,4.6%
CCOCC1(CCc2ccccc2)C(=O)NC(=S)NC1=O,6.2%
COc1cccc(-c2nn(CCC#N)cc2C(=O)Nc2ccccc2Cl)c1,-0.9%
COc1ccc(C(=O)N2CCC3(CC2)OCCO3)cc1,4.8%
N#CCCn1cc(C(=O)Nc2ccccc2Cl)c(-c2ccc([N+](=O)[O-])cc2)n1,-3.2%
COc1ccc(OC)c(-n2c(O)c(/C=C3\C(C)=Nc4ccccc43)c(=O)[nH]c2=O)c1,-1.4%
COc1ccc(-c2nc(CN3C(=O)CN=C(c4ccccc4)c4cc(Cl)ccc43)c(C)o2)cc1,16.5%
CCOP(=O)(Cc1cc(C(=O)CC)c(C)o1)OCC,-12.1%
CC(c1ccc(F)cc1)n1cc(C(=O)NCc2ccc3c(c2)OCO3)nn1 (configuration not stated),-7.0%
O=C(Nc1ccccc1C(F)(F)F)c1cccn(Cc2ccccc2)c1=O,6.8%
COc1cc2c(c(OC)c1)C(=O)OC(C)CCCC(=O)CCCCC2 (configuration not stated),-2.6%
C=CCn1c(O)c(C(CC)=NCc2ccco2)c(=O)[nH]c1=O,-10.3%
COc1ccc(S(=O)(=O)NCc2ccc(C(=O)N3CCC4(CC3)OCCO4)cc2)cc1,19.2%
CCN(CC)c1ccc(N=Cc2c(O)n(-c3ccc(OC)cc3)c(=O)[nH]c2=O)cc1,-11.9%
CCOC(=O)NC(O)C(Cl)(Cl)Cl (configuration not stated),4.9%
N=c1n(CCO)c2ccccc2n1Cc1ccccc1,19.7%
Clc1ccc2c(c1)C(c1ccccc1Cl)=NCc1nnc(N3CCN(CCSc4ccccc4)CC3)n1-2,-21.0%
CCCNC(=O)N1[C@H]2CC[C@@H]1C(C(=O)OC)=C(c1cccc(C#N)c1)C2,15.2%
O=C(CN1CC=C(c2ccccc2)CC1)Nc1cc(Cl)ccc1Cl,-3.3%
Cc1ccc(-n2c(O)c(C=NCc3ccco3)c(=O)[nH]c2=S)cc1C,?
COc1ccc(NC(=O)CCc2nc(C3=CCN(Cc4cccc(Cl)c4)CC3)no2)cc1OC,5.4%
CCOP(=O)(Oc1ccccc1)c1c([N+](=O)[O-])cc(C(F)(F)F)cc1[N+](=O)[O-] (configuration not stated),-0.5%
Oc1cccc2cccnc12,-3.9%&-12.1%&3.1%
CN1C[C@H](C(=O)NC2(C)OC3(O)[C@@H]4CCCN4C(=O)[C@H](Cc4ccccc4)N3C2=O)CC2c3cccc4[nH]cc(c34)C[C@H]21 (some centres not stated),8.0%
CN(C)P1(N(C)C)=NC(C(F)(F)F)=NC(C(F)(F)F)=N1,15.4%
N/C(=N/[N+](=O)[O-])N1CCN(C(=O)Oc2ccc([N+](=O)[O-])cc2)CC1,3.1%
C[C@@H]1O[C@H](C[N+](C)(C)C)C[C@H]1O,-4.0%
COC(=O)C1=C(c2ccc(F)cc2F)C[C@@H]2CC[C@H]1N2C(=O)NCCCOC(C)C,-3.6%
CCc1ccc(-n2nc(C)c3c2NC(=O)CSC3c2ccc(C(=O)OC)cc2)cc1 (configuration not stated),11.6%
N[C@@H](Cc1c[nH]c2ccccc12)c1nnc(SCc2ccc(F)cc2)o1,12.8%
N#CC1=C(N)Oc2c(c(=O)sc3ccccc23)C1c1cccnc1 (configuration not stated),13.8%
COc1ccc(-n2c(O)c(C(C)=NCCN3CCNCC3)c(=O)[nH]c2=O)cc1,11.7%
CC1N=C(c2ccccc2Cl)c2cc(Br)ccc2NC1=O (configuration not stated),-8.1%
CNC(C)Cc1ccccc1OC (configuration not stated),-9.4%&9.0%
C[N+]1([O-])[C@H]2CC[C@H]1CC(OC(=O)[C@@H](CO)c1ccccc1)C2 (some centres not stated),0.6%
c1cncc(CNCCc2ccc3c(c2)OCO3)c1,-18.5%
CCN1C(=O)c2ccccc2Sc2ccc(C(=O)N3CCC4(CC3)OCCO4)cc21,6.1%
# Next part.
SMILES,VDR inh
CC(=O)N(C)C1=Nc2ccc(Cl)cc2C(c2ccccc2)=[N+]([O-])C1,-1.8%
CCOC(=O)CC(SP1(=S)OCC2(CCCCO2)C(C2CCCCO2)O1)C(=O)OCC (configuration not stated),2.7%
O=C(Nc1ccon1)c1cccn(Cc2cccc([N+](=O)[O-])c2)c1=O,-4.1%
CCN1CCN(c2ccc(N)c(C)c2)CC1,-1.1%
CN1CCN(Cc2nc3ccccc3n2C)CC1,-5.3%
Cc1ccc2c(c1)CCCN2N=O,-22.5%
Oc1ccc2c3c1O[C@H]1c4oc5ccccc5c4C[C@@]4(O)C(C2)N(CC2CC2)CC[C@]314,5.9%
C[C@]12CC[C@H](O)CC1=CCC1C2CC[C@]2(C)C(=O)[C@H](Br)CC12 (some centres not stated),?
CSc1ccccc1C(=O)C1CCCN(Cc2cccc(C)n2)C1 (configuration not stated),-0.2%
O=c1[nH]c(=S)n(C2CC2)c(O)c1C=NCCN1CCOCC1,-10.3%
CCOC1=C(N2CC2)C(=O)C(OCC)=C(N2CC2)C1=O,-4.4%
O=C(NC(Oc1ccccc1)C(Cl)(Cl)Cl)c1ccccc1 (configuration not stated),-1.8%
CCOC(=O)C(SP(=S)(OC)OC)c1ccccc1 (configuration not stated),3.55µM*
CC(=O)n1cc(C=C2C(=O)NC(=O)NC2=O)c2ccccc21,?
Cc1ccccc1N1C(=O)CC(=O)N(c2ccccc2C)C1=O,-3.5%

# As entered above:
# COc1ccc(OC)c(-n2c(O)c(/C=C3\C(C)=Nc4ccccc43)c(=O)[nH]c2=O)c1 in VDR inh → -1.4%
# CC(C(=O)c1c[nH]c2ccccc12)N1CCSCC1 (configuration not stated) in VDR inh → -11.0%
# CCN1C(=O)c2ccccc2Sc2ccc(C(=O)N3CCC4(CC3)OCCO4)cc21 in VDR inh → 6.1%

# Following part
SMILES,VDR inh
CN(C)CCN(C(=O)COc1ccc(Cl)cc1)c1nc2cc3c(cc2s1)OCO3,2.4%
c1ccc(-c2ccc(-c3n(-c4ccccn4)c4ccccc4[n+]3-c3ccccn3)cc2)cc1,-13.3%
CC1CC[C@@]2(OC1)O[C@@H]1[C@@H](O)[C@H]3C4CC[C@H]5C[C@@H](O[C@@H]6O[C@H](CO)[C@H](O[C@@H]7O[C@H](CO)[C@@H](O)[C@H](O[C@@H]8OC[C@@H](O)[C@H](O)[C@H]8O)[C@H]7O[C@@H]7O[C@H](CO)[C@@H](O)[C@H](O[C@@H]8O[C@H](CO)[C@@H](O)[C@H](O)[C@H]8O)[C@H]7O)[C@H](O)[C@H]6O)[C@H](O)C[C@]5(C)C4CC[C@]3(C)[C@H]1[C@@H]2C (some centres not stated),-9.9%
Cc1c(N=Nc2c(O)n(Cc3ccccc3)c(=O)[nH]c2=O)c(=O)n(-c2ccccc2)n1C,?
COc1cccc(CNCCc2ccc3c(c2)OCO3)c1OC,-1.4%
COc1ncccc1C(=O)NCC(CC(=O)O)c1ccccc1 (configuration not stated),-1.3%
O=C1CN=C(c2ccccc2Cl)c2cc(Cl)ccc2N1Cc1cccc(Cl)c1,17.1%
Oc1ccc(CC2(N3CCCC3)CCCCC2)cc1,-1.0%
Cc1cccc(Oc2nc3c(C)cccn3c(=O)c2/C=C(\C#N)c2nc3ccccc3s2)c1,?
COc1ccc2c(c[n+](C)c3c4cc5c(cc4ccc23)OCO5)c1OC,28.2µM*
Clc1ccc2sc(C3CCNCC3)nc2c1,2.9%
N#CCCn1cc(C(=O)O)c(-c2cccc([N+](=O)[O-])c2)n1,8.6%
COC(=O)C1=C(c2cc3ccccc3s2)C[C@@H]2CC[C@H]1N2C(=O)NC(C)C,-11.9%
CC(=O)OC1CC[C@@]2(C)C3CC(=O)[C@]4(C)C(C(C)=O)=CCC4C3CC[C@H]2C1 (some centres not stated),2µM*
CC(C)NS(=O)(=O)c1ccc(OCC(=O)N2CCN(Cc3ccc4c(c3)OCO4)CC2)c(Cl)c1,-10.3%

# Rewritten tab-delimited: part of the list above
Structure	VDR inh
COc1cccc2c1C13CC[N+]4(CC5CC5)CO[C@]1(CCC(=O)C3)C4C2	10.3%
CCN1CCN(c2ccc([N+](=O)[O-])cc2C=C2C(=O)NC(=O)NC2=O)CC1	?
COc1ccc2[nH]c(C)c(CCN3CCC(=O)C(C)C3C)c2c1 (configuration not stated)	-18.7%
C(=C\c1ccccc1)/CN1CCN(CCOC(c2ccccc2)c2ccccc2)CC1	-10.3%
CC1(C)C(O)CC(=O)[C@]2(C)C1CC(=O)[C@]1(C)C2CC[C@@]2(C)C(c3ccoc3)OC(=O)C3O[C@@]321 (some centres not stated)	-0.6%
O=C(O)c1cc(O)c(O)c(O)c1	50.1µM*!

# Sorted by number of heavy atoms (smallest number first): 3 of the compounds above
SMILES,VDR inh
COc1ncccc1C(=O)NCC(CC(=O)O)c1ccccc1 (configuration not stated),-1.3%
O=C1CN=C(c2ccccc2Cl)c2cc(Cl)ccc2N1Cc1cccc(Cl)c1,17.1%
CN(C)CCN(C(=O)COc1ccc(Cl)cc1)c1nc2cc3c(cc2s1)OCO3,2.4%

# Next part.
SMILES,VDR inh
S=C(N1CCCCCC1)N1CC1,-15.0%
COc1cc2c(cc1OC)C13CCN4CC5=CCOC6CC(=O)N2C1C6C5C3C4 (configuration not stated) (tested in a mixture with another compound),5.1%
N=C1c2ccccc2CN1NC(=O)c1ccc(F)cc1,2.7%
O=C1NC(=O)C(=Cc2ccccc2Oc2ccc(F)cc2)C(=O)N1,50.1µM*
Nc1ccc(N2CCN(Cc3ccccc3Cl)CC2)c(Cl)c1,-14.4%
N#CC1c2ccccc2-n2nncc2CN1S(=O)(=O)c1ccc(Cl)cc1 (configuration not stated),-9.3%
O=P1(Oc2ccccc2)CC(O)C(O)C(COCc2ccccc2)O1 (configuration not stated),-0.6%
CCOc1ccc(C(C)=O)cc1Cc1c(O)[nH]c(=S)[nH]c1=O,?
CCn1c(O)c(N=Nc2cccc(S(=O)(=O)N3CCOCC3)c2)c(=O)n(CC)c1=S,1.2%
O=C(c1cccn2c(=O)c3ccc(Cl)cc3nc12)N1CCC2(CC1)OCCO2,-13.8%
CCN(CCCNS(=O)(=O)c1ccc2c(c1)oc(=O)n2C)c1cccc(C)c1,?
CN(C)CCc1nn[nH]n1,4.5%
COc1ccc(C2SCC(=O)Nc3c2c(=O)[nH]n3C2CCCCC2)cc1 (configuration not stated),-7.9%
Cc1ccccc1-c1cncnc1NCCc1cnc[nH]1,-10.8%
C=CCN1C(=O)NC(=O)/C(=C/c2ccc(OC)c(CSc3ccccn3)c2)C1=O,70.8µM*
COP(=O)(Cc1ccc(C#N)o1)OC,-4.9%
COc1cc(CN2CC3CC(C2)c2cccc(=O)n2C3)cc(OC)c1OC (configuration not stated),1.6%
CCC1(C)CC(=O)NC(=O)C1,-0.7%
CC(=O)Nc1ccc(C=C2C(=O)NC(=O)NC2=O)cc1,?
O=C(Nc1ccc2c(c1)OCCO2)c1cccn(Cc2ccccc2)c1=O,7.1%
CCOP(=O)(OCC)C(NC(=O)c1cccc(C)c1)C(Cl)(Cl)Cl (configuration not stated),?
CCC1(CC)C(=O)NC(=Nc2cccc(C(F)(F)F)c2)NC1=O,9.1%
Cc1ccc(C2NC(=S)NC(c3ccc(C)cc3)C23C(=O)NC(=O)NC3=O)cc1 (configuration not stated),4.2%
CCCOC(=O)c1c(N)n(Cc2cccs2)c2nc3ccccc3nc12,-25.4%
Cc1cc(OC(=O)N2CCCCC2)c(C(C)C)cc1[N+](C)(C)C,4.9%
COc1ccccc1CN1CCCC(C(=O)c2ccccc2SC)C1 (configuration not stated),-4.9%
Cc1ccccc1C(=O)N1CC1C (configuration not stated),-15.9%
